Compound activity from PubChem BioAssay.
Bead autofluor: flagged as autofluorescent in microsphere protease counterscreen; actives 3.1% (n = 360,000); AID 624483; fluorescence intensity (test concentration not listed); compound autofluorescence counterscreen, microsphere flow cytometry; stronger effect = higher value;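 active = at least 3 SD above the mean of all compounds, about 16000 in these data; inconclusive = too few beads counted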;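 note: 100 nL of 1 mM stock went into each well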
BJeLR lethal: BJeLR cell viability loss; actives 0.17% (n = 300,000); inhibition, % (concentration not given with the values); AID 1554; BJeLR (HRASV12) viability, CellTiter-Glo ATP luminescence, 48 h; reference of the scale not given here;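 active = replicate mean above 50%; inconclusive = above 50% but judged a plate artefact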;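 note: 50 nL library stock added to about 25 µL; numbers are from one replicate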
An asterisk follows results filed as active; u = inconclusive; x = not tested or not shown. An excerpt; the hit share may differ from the screen's.

item	compound	Bead autofluor	BJeLR lethal
1	Cc1ccc([C@@H]2C[C@H]3[C@@H](CN2S(=O)(=O)c2ccc(Cl)cc2)C(=O)C[C@@H](c2cccc4ccccc24)N3S(=O)(=O)c2ccc(C)cc2)cc1	2930	x
2	COc1ccc(S(=O)(=O)N2CCC[C@H]2C(=O)N2CCC[C@H]2C(=O)NCc2ccc(F)cc2F)cc1C	5399	x
3	COc1ccc(CCC(=O)Nc2c(-c3ccc(N(C)C)cc3)[nH][nH]c2=O)cc1	4564	x
4	COCOCCn1cc(CN2CCS(=O)(=O)N(Cc3ccc(-c4ccc(OC)nc4)cc3)C(C)C2=O)nn1 (stereo unspecified)	3413	x
5	Cc1nc(N/N=C/c2cccc([N+](=O)[O-])c2)cc(N2CCCCC2)n1	3780	x
6	CC(CC(=O)c1ccccc1)=NCC(O)CN=C(C)CC(=O)c1ccccc1 (stereo unspecified)	3535	x
7	OC[C@@H]1CN(Cc2ccc3c(c2)OCO3)C[C@H](n2cnc3c(N4CCCC4)ncnc32)O1	3697	x
8	COc1ccc(C(C#N)=Cc2ccccc2OC)cc1	3851	x
9	CC1(C(=O)NS(=O)(=O)c2cccs2)CCN1C(=O)C1(c2ccc(Cl)cc2)CCC1 (stereo unspecified)	3020	x
10	COc1ccc(OCCn2c(C)nc3ccccc32)cc1	3050	x
11	CCCNC(=O)C1(C)CCCN(C(=O)c2ccccc2OC)C1 (stereo unspecified)	3067	x
12	C[C@@H]1CN([C@H](C)CO)C(=O)CCCn2nncc2CO[C@@H]1CN(C)C(=O)C1CC1	3016	x
13	COc1cccc(C#Cc2ccc3c(c2)O[C@@H](CN(C)C(=O)c2ccccn2)[C@@H](C)CN([C@H](C)CO)S3(=O)=O)c1	3457	x
14	CCC(C)(O)c1cnc(CC(C)C)c(=O)n1O (stereo unspecified)	5488	x
15	CN(Cc1cccc(F)c1)C(=O)C1CC(=O)N(Cc2ccco2)C1 (stereo unspecified)	3748	x
16	CC(C)(C)c1ccc(CC(=O)N2CCC2(C)C(=O)NS(=O)(=O)Cc2ccccc2)cc1 (stereo unspecified)	3722	x
17	Nc1cc(C(=O)Nc2ccccc2F)ccc1N1CC2CC(C1)c1cccc(=O)n1C2 (stereo unspecified)	3758	x
18	Cn1cc(-c2ccc(C(=O)NCc3cccc(Cl)c3)c3occc23)cn1	3580	x
19	CCN1C(=O)[C@H]2[C@@H](c3ccc(C(F)(F)F)cc3)N[C@]3(CCCN(Cc4ccc(F)cc4)C3=O)[C@H]2C1=O	3332	x
20	COc1ccc(NC(=O)N(C)[C@H]2C[C@H]3c4[nH]c5ccc(-c6ccc(OC)cc6)cc5c4CCN3C(=O)[C@H]2[C@H](C)O)cc1	3841	x
21	CCNC(=O)C1CCCN(C(=O)c2ccc(C)c(F)c2)CC1 (stereo unspecified)	2976	x
22	O=C1NC(=O)C(=Cc2ccc(Cl)cc2)C(=O)N1	6258	x
23	COc1ccc(-c2oc3c4c2C(=O)OCCOC4CCC3)cc1 (stereo unspecified)	5891	x
24	COc1cc(Cn2c3ccc(NC(=S)NCc4ccc(C)cc4)cc3c(=O)n2C)ccc1F	3795	x
25	NC(=O)CSc1nnc(-c2ccco2)n1-c1ccc(F)cc1	3673	x
26	COC1CCN(C(=O)c2cc(COc3cc(C)ccc3C)on2)CC1	3560	x
27	Cc1cccc(N2CCN(C(=O)c3[nH]c(C(F)(F)F)nc3-c3ccccc3)CC2)c1C	5858	x
28	CCNC(=O)C1(C)CCN(C(=O)c2cc(OC)c(OC)c(OC)c2)C1 (stereo unspecified)	2934	x
29	COc1ccc(-c2cc3nc(-c4ccccc4)cc(N4CCN(C(=O)c5ccccc5)CC4)n3n2)cc1	3674	x
30	COc1ccc(-c2cc3nc(NCCCN(C)C)n(C)c(=O)c3s2)c(C)c1	3848	x
31	CC(C)(C)C(=O)c1c(N)[nH]c(C(=O)c2ccccc2)c1-c1ccc(Cl)cc1Cl	4282	x
32	O=S1(=O)CC(N2CCN(c3ccccn3)CC2)CN1Cc1ccccc1 (stereo unspecified)	4334	x
33	CCc1nc2c(OCc3ccc4c(c3)OCO4)cccn2c1N(C=O)Cc1ccc(OC)cc1	3733	x
34	CC1=C(C(=O)N(C(C)C)C(C)C)CC(CC(=O)NCc2ccco2)C(=O)N1CCC1=CCCCC1 (stereo unspecified)	5154	x
35	Cc1ccccc1CC(=O)Nc1ccc2c(c1)c(=O)n(C)n2-c1cccs1	3565	x
36	CC1(C(=O)NS(=O)(=O)c2cccc(C#N)c2)CCN1C(=O)Cc1ccccc1 (stereo unspecified)	2939	x
37	CC1(C(=O)NS(=O)(=O)c2ccc(C#N)cc2)CCN1C(=O)CC1CCCCC1 (stereo unspecified)	4438	x
38	COc1cc(NC(=O)COc2cc(C)cc3oc(=O)cc(C)c23)cc(OC)c1OC	2910	x
39	COCCCN1C(=O)C(CC(=O)NCCc2ccccn2)CC(C(=O)N2CCOCC2)=C1C (stereo unspecified)	2873	x
40	CCOc1ccc(NC(=O)c2ccc3c(c2)S(=O)(=O)N=C2CCCCCN23)cc1	2932	x
41	CC(C)NC(=O)N(C)C[C@@H]1OCc2cnnn2CCCC(=O)N([C@H](C)CO)C[C@H]1C	3592	x
42	CC(=O)c1cccc(NC(=O)c2cccc3c(-c4cccnc4)coc23)c1	3015	x
43	CCC1NC(=O)c2cc3ccccc3cc2-n2c1nc1ccc(OC)cc1c2=O (stereo unspecified)	3769	x
44	CNc1nc(NCc2ccc(N(C)C)cc2)c2sccc2n1	3368	x
45	COc1ccc(C(O)c2nc(-c3ccc(OC)c(OC)c3)cs2)cc1 (stereo unspecified)	3945	x
46	O=C(Nc1ncccc1O)c1ccc(S(=O)(=O)NCc2ccco2)cc1	2945	x
47	Cn1cc(-c2csc(C(O)(c3ccccc3)C(F)(F)F)n2)cn1 (stereo unspecified)	3860	x
48	CC1(C(=O)NS(=O)(=O)c2ccccc2C(F)(F)F)CCN1C(=O)c1cccc(F)c1 (stereo unspecified)	4022	x
49	CC1(C(=O)NS(=O)(=O)c2ccccc2Cl)CCN1C(=O)COc1ccc(Cl)cc1 (stereo unspecified)	3493	x
50	CCOC(=O)c1ccc(NC(=O)c2nc[nH]c2C(=O)NC[C@@H](C)O)cc1	3621	x

(further entries)
item	compound	Bead autofluor	BJeLR lethal
51	CCOc1ccc(-c2cc(C(=O)NCc3ccc(F)cc3)[nH]n2)c(C)c1	3479	x
52	c1ccc(-c2cc(-c3cc(-c4ccccc4)on3)no2)cc1	3712	x
53	Cc1ccc(S(=O)(=O)N(C)C[C@@H]2OCc3cnnn3CCCC(=O)N([C@@H](C)CO)C[C@H]2C)cc1	2937	x
54	CC1(C(=O)NCc2ccc3c(c2)OCO3)CCN1C(=O)C1(c2ccc(Cl)cc2)CC1 (stereo unspecified)	2851	x
55	Cc1cc(S(=O)(=O)NC(=O)[C@H]2O[C@@H](n3cnc4c(N)ncnc43)[C@H](O)[C@@H]2O)ccc1Br	7055	x
56	COc1cc2ccc(-c3ccc4ccccc4n3)cc2cc1OC	2846	x
57	CCOC(=O)[C@]12CCC=C1N(Cc1ccc(Cl)cc1Cl)C(=O)[C@H](CC(=O)NCC13CC4CC(CC(C4)C1)C3)C2	5061	x
58	COc1cccc(-c2cnc3c(NC(C)=O)cc(-c4ccc(S(C)(=O)=O)cc4)cn23)c1	3389	x
59	COc1cc(NC(=O)CCN2CCN(c3ccccc3OC)CC2)cc(OC)c1	3823	x
60	COc1ccc(NC(=O)c2cc(C3CCCCN3C(=O)c3ccccc3)on2)c(C)c1 (stereo unspecified)	3310	x
61	Cc1ccccc1P(=O)(c1ccccc1)c1ccccc1C	3540	x
62	COc1ccc(OCCN2CCC(C(=O)NC(c3ccc(Cl)cc3)c3ncccc3C)CC2)cc1 (stereo unspecified)	3884	x
63	CC(C)CC(N)c1csc(NC(=O)NCCc2ccccc2)n1 (stereo unspecified)	3024	x
64	CC(C)c1ccc(C(=O)N2CCCCC2c2cc(C(=O)NCc3cccnc3)no2)cc1 (stereo unspecified)	3875	x
65	COc1ccc(-c2ccc(C(=O)NCCc3ccccc3)c3occc23)c(C)c1	3113	x
66	CNC(=O)C[C@H]1C(=O)N(CCc2ccccc2)C[C@@H]1C	3902	x
67	COc1ccc(-c2cc(NC=O)c3ncc(-c4ccc(C(C)=O)cc4)n3c2)cc1OC	3052	x
68	COc1ccccc1NC(=O)C(C)OC(=O)C1CC(=O)N(Cc2ccco2)C1 (stereo unspecified)	2888	x
69	CCCS(=O)(=O)NC(=O)C1(C)CCCN(C(=O)c2cc(C)nn2C(C)(C)C)C1 (stereo unspecified)	2800	x
70	COc1ccc([C@H]2N[C@]3(CCCN(Cc4ccc(Br)cc4)C3=O)[C@H]3C(=O)N(Cc4ccccc4)C(=O)[C@@H]23)cc1	2891	x
71	CN(Cc1ccccc1F)c1cc2c(c3c1ccn3C)C1CCC2C1 (stereo unspecified)	4518	x
72	CCC(=O)N1CCCC1(C)C(=O)Nc1ccc2scnc2c1 (stereo unspecified)	2890	x
73	Cn1c(NCCOc2ccccc2Cl)nc2cc(-c3ccc(F)cc3)sc2c1=O	3738	x
74	C[C@H](CO)N1C[C@H](C)[C@@H](CN(C)S(C)(=O)=O)OCc2cnnn2CCCC1=O	3408	x
75	CC(C)CC(c1nc2ccccc2[nH]1)n1c(-c2ccccc2Br)nc2ccccc21 (stereo unspecified)	5444	x
76	CCOC(=O)C1(C)CCCCN1C(=O)c1ccc(F)c(C)c1 (stereo unspecified)	3680	x
77	Cn1nc(C(C)(C)C)cc1C(=O)N1CCCCC1c1cc(C(=O)NCc2cccnc2)no1 (stereo unspecified)	3487	x
78	CCSCCCn1[nH]c2ccccc2c1=O	2774	x
79	CN(C)c1ccc(/C=N/NC(=O)c2ccc(-n3cnnn3)cc2)cc1	5920	x
80	CC(C)C[C@@H]1COc2cccc(N3CCN(C)CC3)c2S(=O)(=O)N1	5446	x
81	COCC(=O)Nc1ccc(S(=O)(=O)Nc2onc(C)c2C)cc1	3538	x
82	COc1ccc(/C=C(\NC(=O)c2ccc(Cl)cc2)C(=O)NCc2cccnc2)cc1OC	3873	x
83	O=c1[nH]c(=O)n2ncnc2[nH]1	2878	x
84	Brc1ccc(-c2nc3ccc(Br)cn3c2Cc2ccccc2)cc1	7519	x
85	O=C1CCSC2=C1SCc1sccc12	5940	x
86	COc1ccc(-c2nc3ccc(Cl)cn3c2CC(C)(C)C)cc1OC	6055	x
87	COc1ccc(CN2C(=O)C(CC(=O)NCCc3ccccn3)CC(C(=O)N(C(C)C)C(C)C)=C2C)cc1 (stereo unspecified)	4025	x
88	Cc1cccc(C(O)c2ncc(-c3ccc4ccccc4c3)[nH]2)c1C (stereo unspecified)	3806	x
89	CCOC(=O)C1CCN(C(=O)c2ccc3c(=O)n4nc(Nc5ccccc5OC)sc4nc3c2)CC1	4032	x
90	COc1ccc(-c2nc3c(Cl)cc(C(F)(F)F)cn3c2Cc2ccc(C)cc2)cc1OC	6191	x
91	Cc1cc(C)c2c(N)c(C(=O)N/N=C/c3cccs3)sc2n1	4557	-7
92	Nc1ccc(Nc2ccccc2)c(S(=O)(=O)O)c1	3477	22
93	C/C(=N\NC(=O)c1cccnc1)c1ccc(-c2ccccc2)cc1	5659	-8
94	C/C(=N\N1C(C)CCCC1C)c1ccccc1O (stereo unspecified)	3623	11
95	CCN(CC)C(=O)CSC(Nc1cccc(F)c1)=C(C#N)C#N	4505	-4
96	COc1ccccc1Nc1nc(NCCO)nc(N)c1[N+](=O)[O-]	6515	-7
97	O=C(Nc1ccc(Nc2ccccc2)cc1)c1ccc(F)cc1	3734	1
98	C/C(=N\NC1=N[C@H]2CS(=O)(=O)C[C@H]2S1)c1ccccc1	6444	2
99	CCN(CCNCC(O)COc1ccccc1C(C)C)c1cccc(C)c1 (stereo unspecified)	4820	1
100	COc1ccc2c(c1)CCC/C2=N\Nc1nc(C(=O)NN)cs1	5533	3

Retrieved one by one from the list above, 4 records:
item	compound	Bead autofluor	BJeLR lethal
73	Cn1c(NCCOc2ccccc2Cl)nc2cc(-c3ccc(F)cc3)sc2c1=O	3738	x
47	Cn1cc(-c2csc(C(O)(c3ccccc3)C(F)(F)F)n2)cn1 (stereo unspecified)	3860	x
81	COCC(=O)Nc1ccc(S(=O)(=O)Nc2onc(C)c2C)cc1	3538	x
68	COc1ccccc1NC(=O)C(C)OC(=O)C1CC(=O)N(Cc2ccco2)C1 (stereo unspecified)	2888	x

(cont.)
item	compound	Bead autofluor	BJeLR lethal
101	CCC1CCC/C1=N\NC(=O)c1ccccc1Cl (stereo unspecified)	6186	1
102	Cn1cccc/c1=N\c1cccc[n+]1C	4725	8
103	Nc1nonc1-n1nnc(C(=O)N/N=C/C=C/c2ccccc2)c1CSC1=NCCS1	4604	-1
104	CC12CC[C@H]3[C@@H](CCC4(O)C[C@H](O)CCC34/C=N/NC(=O)c3ccc(O)cc3)C1(O)CCC2C1=CC(=O)OC1 (stereo partly specified)	u	5
105	Cc1nn(-c2ccccc2)cc1/C=N/NC(N)=S	4579	2
106	O=S(=O)(N/N=C\c1ccc2c(c1)OCO2)c1ccc(Cl)cc1	9419	1
107	Cc1nn2c(NCc3ccccn3)c3c(nc2c1-c1ccccc1)CCC3	5274	16
108	CC(=O)NO	5423	3
109	Cc1cc(=O)[nH]c(N/N=C/c2cc(C)n(CC(F)(F)F)c2C)n1	3347	8
110	O=C(/C=C/c1ccccc1)C1=C(O)C(=O)N(CCO)C1c1cccc([N+](=O)[O-])c1 (stereo unspecified)	5408	12
111	O=C(CN1C(=O)c2ccccc2C1=O)NCc1ccc(C(=O)O)cc1	3482	-1
112	C=CCc1c(C)nc(C)nc1N/N=C/c1ccccc1O	8218	-24
113	COc1cc([N+](=O)[O-])cc(/C=N/NC(=O)c2cccnc2)c1O	4115	-6
114	CNC(=O)N(O)C1N(/N=C/c2cc(Br)ccc2O)C(=S)SC1(C)C (stereo unspecified)	4241	0
115	COC(=O)c1sc(-c2ccc(C(C)(C)C)cc2)cc1NC(=O)CCC(=O)O	6638	3
